gsp agonist: gsp mutant agonism. Potency, µM (highest dose often 76.9 µM), for inactives: top-dose activation (cAMP increase), hits mostly activators. gsp mutant cells, cAMP HTRF, 30 min; control for the full effect not named in the record. actives 0.13% (n = 340,000); active = well fitted activation curve with a large enough effect; inconclusive = small, poorly fitted or top-dose-only effect, or another doubt; inactive = no such curve, though single readings can be large or run the other way; cell line not stated here;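 further: phosphodiesterase inhibitor Ro 20-1724 added with compounds to block cAMP breakdown; potency means the concentration at half of the fitted maximal effect; nearly all actives have a fitted effect of over 60% in size; about a fifth of the inactives were tested at one dose only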
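Cells in DMEM/10% FBS with G418 were pretreated with compounds in DMSO plus […] (300 uM stock) for 30 min at 37C. cAMP was measured by HTRF (cAMP-d2 plus anti-cAMP antibody-K) after 30 min at room temperature.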
PINK1 expr mod: PINK1 expression modulation | PINK1 immunofluorescence, high-content cytometry, 24 h | actives 0.2% (n = 410,000) | AID 624263 | Potency, µM (top dose mostly 76.6 µM), for inactives: at the highest dose activation (PINK1 increase), usual class: activators; active = well fitted activation curve with a large enough effect; inconclusive = small, poorly fitted or top-dose-only effect; inactive = flat fitted curve, though single readings scatter; cell line not stated here;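 further: potency means the concentration at half of the fitted maximal effect; % of control where 0% means no effect; nearly all actives have a fitted effect of over 65% in size; a mitochondrial uncoupler was the plate control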
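PINK1 protein level read as immunofluorescence by microplate cytometer in a fixed, stained stable cell line after 24 h exposure to five compound concentrations, with CCCP as control.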
D2 agonist: human D2 receptor agonism in beta-arrestin assay; DiscoveRx PathHunter D2 beta-arrestin, luminescence, 90 min; 100% = 57 uM dopamine signal; P14416; AID 624465; actives 0.084% (n = 360,000); activation, % (concentration not given with the values); in the data active = activation above about 40%; inconclusive = about 15% to 40%; inactive = below about 15%; further: compound concentration not given in the record; the text of the record calls up to 30% inactive
Target sequence (P14416 whole entry, looked up): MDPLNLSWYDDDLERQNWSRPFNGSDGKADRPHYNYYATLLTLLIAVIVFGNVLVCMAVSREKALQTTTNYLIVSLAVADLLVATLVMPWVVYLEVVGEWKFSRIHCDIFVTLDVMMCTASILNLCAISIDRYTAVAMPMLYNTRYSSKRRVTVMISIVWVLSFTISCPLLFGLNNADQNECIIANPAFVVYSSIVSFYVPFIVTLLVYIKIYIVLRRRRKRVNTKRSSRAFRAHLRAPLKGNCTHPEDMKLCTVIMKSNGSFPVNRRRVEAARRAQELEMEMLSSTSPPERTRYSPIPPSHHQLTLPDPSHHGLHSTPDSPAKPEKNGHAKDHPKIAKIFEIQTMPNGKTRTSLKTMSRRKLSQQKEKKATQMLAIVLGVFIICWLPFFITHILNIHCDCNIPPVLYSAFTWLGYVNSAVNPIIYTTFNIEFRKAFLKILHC
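Agonist mode: compounds alone added to overnight-plated D2 PathHunter cells for 90 min at 37 C, with 57 uM final dopamine (EC100) defining full response. Beta-arrestin recruitment detected by chemiluminescent reagent, read after 1 h at ambient temperature.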
Sfp PPTase inh: inhibitors of Bacillus subtilis Sfp phosphopantetheinyl transferase | Q9F4F7 | Biochemical Sfp PPTase activity, qHTS | Potency, µM, without a hit: max response, negative = inhibition, hits mostly inhibitors | actives 3.5% (n = 310,000) | AID 1490; active means well fitted inhibition curve with a large enough effect; inconclusive means small, poorly fitted or top-dose-only effect, or another doubt; inactive means no such curve, though single readings can be large or run the other way;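 further: the enzyme is Sfp with the accession as filed and its product quenches rhodamine fluorescence; potency means the concentration at half of the fitted maximal effect; 0% = enzyme reaction without inhibitor and -100% = no enzyme wells; top concentration of the series not given in the record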
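Fluorescence-quenching assay with 15 nM Sfp, 5 uM rhodamine-CoA and 12.5 uM BHQ-2-labelled ybbR peptide in pH 7.6 Hepes/MgCl2 buffer. Enzyme was pre-incubated with compound for 15 min at room temperature. Rate was taken from the 30-min fluorescence change (525/598 nm).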
ClpP mod: qHTS Assay for Activators of ClpP; ATP-dependent Clp protease proteolytic subunit (Bacillus subtilis (strain 168)), P80244; purified B. subtilis ClpP, FRET peptide cleavage, 20 min; Potency, µM (doses to about 57.5 µM), for inactives: at the highest dose activity change, negative = active; actives 1.9% (n = 340,000); active = well fitted falling curve with a large enough effect; inconclusive = small, poorly fitted or top-dose-only effect; inactive = no such curve, though single readings can be large or run the other way; further: potency means the concentration at half of the fitted maximal effect; the source files actives as falling curves though it sought activators and does not explain the sign; nearly all actives have a fitted effect of over 65% in size; many hits overshoot -100%
Target sequence (P80244 whole entry, looked up): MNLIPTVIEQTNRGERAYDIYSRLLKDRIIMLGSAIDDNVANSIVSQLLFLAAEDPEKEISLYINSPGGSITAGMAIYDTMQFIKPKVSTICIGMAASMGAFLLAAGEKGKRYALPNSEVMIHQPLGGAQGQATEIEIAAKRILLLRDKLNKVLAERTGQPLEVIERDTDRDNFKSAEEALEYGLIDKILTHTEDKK
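Purified B. subtilis ClpP, 10 microg/mL final in Tris/HCl pH8 with KCl, BSA, glycerol and Tween-20, cleaved an Abz/nitrotyrosine-quenched decapeptide. Fluorescence (ex 320, em 430) was read at 0 and 20 min at room temperature. Delta was normalized to 5.8 microM ADEP and DMSO/no-enzyme controls.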
Menin-MLL FL inh: menin-MLL binding inhibition, fluorescein peptide; Fluorescence polarization, fluorescein-MLL peptide displacement from menin; FP activity change, % at 61.4 µM; 290,000 tested, under 10 active; inconclusive = falling polarisation curve, or a change in total fluorescence; inactive = total fluorescence flat and polarisation flat or rising; no compound was filed as active; the % refers to the polarisation; negative = inhibition;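 further: % of control where 0% means no effect; inhibitors lower the polarisation; unlabelled MLL peptide was the positive control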
gsp antagonist: antagonists of gsp mutant (McCune-Albright syndrome); gsp-mutant cells, cAMP HTRF, 30 min; control for the full effect not named in the record; actives 0.4% (n = 340,000); Potency, µM (highest dose often 76.9 µM), without a hit: top-dose activity change, negative = inhibition, hits mostly inhibitors; active = falling curve of any shape with a large fitted effect; inconclusive = falling curve, mostly with a smaller effect; inactive = flat or rising curve; cell line not stated here;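 further: intracellular cAMP measured with PDE inhibitor Ro 20-1724 present during compound exposure; potency means the concentration at half of the fitted maximal effect; on the % scale 0 is the no-effect control and ±100 the full control effect; nearly all actives have a fitted effect of over 65% in size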
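Cells, 2000/well, grown 16–24 h in DMEM 10% FBS with 0.5 mg/ml G418, then compounds plus […] (300 uM addition stock), 30 min at 37C. cAMP read by HTRF (cAMP-d2 and anti-cAMP antibody-K in lysis buffer) after 30 min RT.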
* = called active by the depositor; ? = inconclusive; · = not tested or not shown; [ ] = another dose, or the depositor's remark. A portion of the library (hit frequency here may not be typical).

SMILES	gsp agonist	PINK1 expr mod	D2 agonist	Sfp PPTase inh	ClpP mod	Menin-MLL FL inh	gsp antagonist
Cc1c(Cl)cccc1N1C(=O)NC(=O)/C(=C\c2cc(C)n(-c3cccc(C(=O)O)c3C)c2C)C1=O	-32.6%[inhibitor]	1.4%	-7.3	-10.2%	-4.1%	13.1	4.5%
CC(=O)Nc1ccccc1C(=O)OCC(=O)c1ccccc1Cl	?	-0.2%	-0.1	-6.8%	-4.2%	3.1	5.1%
O=C1C(Cc2cnc[nH]2)NC(=S)N1c1ccccc1 (configuration not stated)	-34.9%[inhibitor]	1.5%	-0.3	50.1µM*	·	11.5	6.8%
CCOC(=O)C1CCN(/C=C2/C(=O)NC(=S)N(c3ccccc3F)C2=O)CC1	0.2%	2.1%	-0.1	-8.8%	1.6%	10.0	8.6%
Clc1cccc(Cl)c1C1N2CCCN12 (configuration not stated)	?	-1.6%	-4.0	3.5%	1.0%	-0.7	-2.9%
COc1ccc(-c2nn(CCC#N)cc2C(=O)Nc2ccccc2)cc1OC	?	1.7%	-2.0	21.0%	-2.2%	1.5	0.3%
CCOP(=S)(OCC)SCCSCC	·	1.1%	-1.5	·	0.7%	·	-7.0%
Fc1ccccc1CNCCc1ccc2c(c1)OCO2	0.4%	1.5%	-2.5	9.1%	1.4%	-0.3	3.8%
CC1([N+](=O)[O-])COP(=O)(Nc2cccc(Br)c2)OC1 (configuration not stated)	10.4%	-0.1%	-2.0	·	3.4%	·	3.8%
O=C(Cn1nc(-c2ccc(Cl)cc2)ccc1=O)N1CCC2(CC1)OCCO2	?	0.3%	-2.5	19.8%	-20.0%	0.4	2.9%
CC(=O)c1c(O)c(C)c(O)c2c1OC1=Cc3c(c(C)nn3-c3ccccc3)C(=O)C12C (configuration not stated)	-36.9%[inhibitor]	4.1%	-3.4	·	1.2%	·	·
CN1CCN(C(=O)COc2ccc3ccccc3c2)CC1	-36.4%[inhibitor]	-1.4%	-3.0	16.7%	·	-3.0	1.0%
COc1ccc(-c2nc3ccccc3c(=O)o2)cc1	-11.4%	0.4%	0.2	21.7%	·	3.1	-22.2%
Cc1cccc(OP(=O)(Oc2cccc(C)c2)OC(c2ccccc2)C(F)(F)F)c1 (configuration not stated)	7.7%	8.5%	-0.2	9.4%	-0.7%	0.0	-0.9%
Cc1cccc(N2C(=O)/C(=C/c3ccc(N4CCN(C)CC4)o3)C(=O)NC2=S)c1C	12.6%	8.7%	-3.3	63.1µM*	-4.2%	?	-2.7%
O=c1[nH]c(=S)n(CCC2=CCCCC2)c(O)c1/C=N/Nc1ccccc1	-11.6%	-0.3%	-2.1	?	0.0%	11.1	?
Cc1ccc(OP(=O)(O)Oc2ccc(C)cc2)cc1	-7.2%[15.4 µM]	0.2%	1.2	·	0.6%	·	6.2%
CC1(C(O)(C#CCN2CCCCC2)c2ccccc2)CCCC1 (configuration not stated)	2.0%	?	-0.5	-0.8%	·	-8.5	5.2%
CS(=O)(=O)c1ccc(C2=C(CNC(=O)c3ccncc3)[C@H]3CC[C@@H](C2)N3CCOc2ccccc2)cc1	-3.8%	-0.8%	1.0	·	0.7%	·	·
COC(COC(N)=O)C1=C(N2CC2)C(=O)C(C)=C(N2CC2)C1=O (configuration not stated)	-23.6%	-1.6%	·	·	-18.8%	·	-25.9%
COC(=O)C1=C(c2cccc(OC)c2OC)C[C@@H]2CC[C@H]1N2C(=O)N1CCCC1	20.6%	0.1%	-0.1	·	0.8%	·	2.4%
Cc1cc(OC(C)C(=O)NCc2ccncc2)c2c3c(c(=O)oc2c1)CCC3 (configuration not stated)	6.9%	10.3%	1.5	8.3%	4.0%	·	0.7%
CCOc1ccccc1CNCCc1ccc2c(c1)OCO2	6.2%[15.4 µM]	-1.1%	-2.1	14.3%	?	0.7	3.7%
O=C1NC(=O)N(CCNc2ncc(C(F)(F)F)cc2Cl)C(=O)C1Cc1ccc(Cl)cc1 (configuration not stated)	-3.6%[15.4 µM]	2.0%	2.3	?	·	-2.4	-1.7%
O=C(c1cccnc1)c1cc2ccccc2[nH]1	9.3%	5.4%	4.0	1.4%	1.2%	4.0	6.4%
Cc1nc2cc(C(=O)N3CCC4(CC3)OCCO4)ccc2n1-c1cccc(F)c1	31.0%	9.3%	0.6	6.7%	-24.6%	-1.2	7.8%
NP(=O)(OCCCCc1ccccc1)Oc1ccccc1Cl (configuration not stated)	1.2%	4.0%	1.0	4.6%	0.4%	-3.5	7.7%
N#Cc1cccc(NC(=O)N2CC[C@@]3(CCCN(C(=O)Oc4ccccc4)C3)C2)c1	·	0.1%	·	1.0%	·	0.7	·
CC1(C)C2([N+](=O)[O-])CN3CC1([N+](=O)[O-])CN(C2)C3c1cccnc1 (configuration not stated)	-0.5%[15.4 µM]	1.8%	-2.9	-4.6%	-0.4%	-0.5	15.5%
CCCC(=O)NC1=C(N2CC2)C(=O)C(NC(=O)CCC)=C(N2CC2)C1=O	?	-2.7%	10.8	·	·	·	-16.4%
CC(Cc1ccccc1)NC(=O)CCCCC(=O)NC(C)Cc1ccccc1 (configuration not stated)	13.5%	0.3%	2.9	10.2%	·	9.0	-3.5%
CC1=CC2OC3CC4OC(=O)C=CC=CC(=O)OCCC(C)C(O)C(=O)OCC2(CC1)C4(C)C31CO1 (configuration not stated)	-9.6%	-7.2%	2.9	·	-4.8%	·	-9.1%
COc1cc(OC)cc(C2(C#N)CCN(C)CC2)c1	27.4%	-0.6%	-2.8	-7.0%	1.3%	-6.2	7.5%
C[C@]12CCC(=O)C=C1C=CC1C2CC[C@]2(C)C(=O)CCC12 (some centres not stated)	-3.7%[15.4 µM]	-1.1%	-0.4	·	-3.2%	·	3.7%
COc1ccc(N2CC2c2ccncc2)cc1 (configuration not stated)	-1.9%	-1.0%	-0.1	12.6%	·	2.9	6.6%
COC(=O)c1ccc(N=C(c2ccccc2)c2c(O)n(C)c(=O)n(C)c2=O)cc1	8.2%	0.9%	-2.8	?	-2.7%	-3.2	-1.5%
Cc1cc(S(N)(=O)=O)ccc1N=Cc1c(O)n(-c2ccccc2)c(=O)[nH]c1=O	4.6%	-0.8%	1.1	-1.1%	-10.1%	-1.8	-12.9%
Cc1cnn(-c2cc(Oc3ccccc3)ncn2)c1	-32.7%[inhibitor]	-1.1%	-1.9	-16.1%	-19.3%	3.9	-1.9%
Cc1ccc2c(c1)CC1(CN2C)C(=O)NC(=O)N(c2ccccc2C)C1=O (configuration not stated)	12.5%	5.3%	-1.0	-8.8%	-4.7%	-1.4	-6.2%
c1ccc(-c2ccc3c(c2)CNCc2cnnn2-3)cc1	·	-0.4%	-5.2	·	-12.6%	·	·
COc1cc(C(=O)O)cc(OC)c1OC	·	2.6%	-2.8	·	1.6%	·	-6.6%
N#Cc1cccc(NC(=O)N2CC3(CCN(C(=O)Oc4ccccc4)CC3)C2)c1	·	-0.6%	·	13.7%	·	-9.0	·
CC1(O)C[C@]2(C)N(O)C3CCCC[C@@H]3N2O1 (some centres not stated)	2.8%	0.8%	0.6	-10.4%	-2.1%	8.3	-5.1%
CCCCC(=O)N/N=C/c1c(O)n(CCCC)c(=S)[nH]c1=O	8.7%[15.4 µM]	1.1%	-3.9	20.2%	-1.6%	7.3	5.7%
CC1CCCCC12C(=O)NC(=O)NC2=O (configuration not stated)	-5.2%	-2.0%	-2.2	·	-1.7%	·	6.9%
CN(C)C(=O)CSc1nnc([C@@H](N)Cc2ccccc2)o1	0.1%	2.4%	-0.3	-22.4%	-1.2%	0.5	8.6%
CCCn1ncc(C(=O)O)c1C	-4.6%	-2.0%	-1.6	13.2%	0.9%	0.7	3.1%
CCCCC(=O)N/N=C/c1c(O)n(CCc2ccc(OC)c(OC)c2)c(=O)[nH]c1=O	3.9%[15.4 µM]	3.4%	-1.7	6.0%	·	·	-3.0%
CP(=O)(Nc1ccc(Cl)cc1)c1nc2c(s1)CCCC2 (configuration not stated)	6.3%	-0.3%	-1.1	3.4%	-1.6%	0.7	12.3%
O=C(Nc1ccc(F)cc1)NC1CCN(Cc2ccccc2)CC1	-47.1%[inhibitor]	0.4%	-5.2	29.9%	0.7%	-4.1	4.3%
COC(=O)C1=C(c2ccc(F)cc2OCc2ccccc2)C[C@@H]2CC[C@H]1N2C(=O)N1CCCCC1	-0.5%	19.4%	-5.5	·	-4.2%	·	-7.4%
Cc1ccc(C)c(OCC(=O)N2CCCN(C)CC2)c1	-20.7%	-1.7%	0.4	8.6%	-1.3%	5.3	12.2%
CCOC(=O)c1cccc(C2=C(CNC(=O)c3nccs3)[C@H]3CC[C@@H](C2)N3Cc2ccccc2)c1	1.0%	0.0%	-2.0	·	-1.6%	·	·
CN1CCN2c3ccccc3CC3(C(=O)N(C)C(=O)N(C)C3=O)C2C1 (configuration not stated)	?	1.0%	-0.5	-1.3%	·	-0.4	9.3%
CCOC(=O)C1=C(C)NC(=O)CC1c1ccccc1 (configuration not stated)	-90.3%[inhibitor]	1.0%	-3.1	-3.2%	0.0%	0.7	6.6%
CCCCN1C(=N)C(CC)(CC)C(=O)NC1=O	0.0%[15.4 µM]	-0.4%	-2.9	5.9%	-1.3%	-0.5	-2.3%
Cc1cc(C)c(-n2c(O)c(/C=N/NC(=O)c3ccncc3)c(=O)[nH]c2=O)c(C)c1	-3.2%	2.1%	2.0	12.7%	·	?	6.7%
O=c1c2ccccc2[nH]c(=S)n1-c1cccc(C(F)(F)F)c1	-33.1%	5.8%	-11.8	·	-1.6%	·	·

An excerpt of these results, in CSV form:
compound,gsp agonist,PINK1 expr mod,D2 agonist,Sfp PPTase inh,ClpP mod,Menin-MLL FL inh,gsp antagonist
CCCCC(=O)N/N=C/c1c(O)n(CCc2ccc(OC)c(OC)c2)c(=O)[nH]c1=O,3.9%[15.4 µM],3.4%,-1.7,6.0%,·,·,-3.0%
CP(=O)(Nc1ccc(Cl)cc1)c1nc2c(s1)CCCC2 (configuration not stated),6.3%,-0.3%,-1.1,3.4%,-1.6%,0.7,12.3%
